TRPML1 blocker – qHTS for Inhibitors of the Human Mucolipin Transient Receptor Potential 1 (TRPML1); Mucolipin-1 (Homo sapiens), Q9GZU1; activity change, negative = inhibition, % (concentration not given with the values); 390,000 compounds, 0.02% hits; TRPML1-inducible cells, Ca2+ dye fluorescence, FDSS; stronger effect = lower value; inhibition of EC80 agonist-evoked calcium signal; AID 624415, 2012; in the data active means activity change below about -50%; inconclusive means about -30% to -50%; inactive means above about -30%;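 note: stimulus is agonist 54-4 at its EC80 concentration; % is set by controls: 0 for no effect and ±100 for the full control effect; the text of the record puts the active cut at -80%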
Target sequence (Q9GZU1 whole entry, looked up): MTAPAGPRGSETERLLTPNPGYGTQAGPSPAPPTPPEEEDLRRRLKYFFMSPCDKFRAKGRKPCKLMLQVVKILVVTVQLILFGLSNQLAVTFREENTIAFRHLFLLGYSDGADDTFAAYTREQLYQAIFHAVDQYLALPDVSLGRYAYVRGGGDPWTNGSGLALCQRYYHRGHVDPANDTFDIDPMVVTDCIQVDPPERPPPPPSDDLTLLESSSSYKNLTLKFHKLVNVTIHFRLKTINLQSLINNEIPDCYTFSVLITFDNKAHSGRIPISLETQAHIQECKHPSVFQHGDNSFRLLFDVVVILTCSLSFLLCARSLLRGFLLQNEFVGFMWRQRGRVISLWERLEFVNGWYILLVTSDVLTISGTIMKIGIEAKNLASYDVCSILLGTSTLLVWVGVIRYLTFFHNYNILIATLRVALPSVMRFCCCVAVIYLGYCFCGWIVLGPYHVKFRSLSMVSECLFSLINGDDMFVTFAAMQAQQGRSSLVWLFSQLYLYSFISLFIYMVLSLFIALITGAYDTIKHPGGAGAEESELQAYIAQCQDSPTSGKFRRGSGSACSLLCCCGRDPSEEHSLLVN
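Tet-induced TRPML1-DL cells loaded with Ca8 no-wash calcium dye were read kinetically on FDSS. Compound addition was followed by EC80 agonist 54-4 (4 uM final); inhibition was read over 110 s.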
TRPV1 PAM – HTS Assay for Compounds that Act as Potentiators of the Vanilloid Receptor 1; Transient receptor potential cation channel subfamily V member 1 (Homo sapiens), Q8NER1; TRPV1-expressing cells, Fluo-8 calcium influx, capsaicin EC20 potentiation; host cell line not named in the record; control for the full effect not named in the record; potentiation, % at 8.33 µM; 320,000 compounds, 0.02% hits; active means potentiation above 80%; inconclusive means 30% to 80%; inactive means below 30%; note: 0% is about no effect
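Cells expressing TRPV1 were dye-loaded with Fluo-8 and read kinetically: 10 s baseline, 3 min after compound (agonist portion), then 2 min after EC20 capsaicin (allosteric enhancer portion). Calcium-bound dye fluorescence at 480/520 nm.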
ClpP mod – qHTS Assay for Activators of ClpP. purified B. subtilis ClpP, FRET peptide cleavage, 20 min. Potency, µM (top dose mostly 57.5 µM), for the others: top-dose activity change, negative = active. AID 651965, 2013. ATP-dependent Clp protease proteolytic subunit (Bacillus subtilis (strain 168)), P80244. 340,000 compounds, 1.9% hits; active = well fitted falling curve with a large enough effect; inconclusive = small, poorly fitted or top-dose-only effect; inactive = no such curve, though single readings can be large or run the other way; note: potency is the fitted concentration of half-maximal effect; the source files actives as falling curves though it sought activators and does not explain the sign; nearly all actives have a fitted effect of over 65% in size; many hits overshoot -100%
Target sequence (P80244 whole entry, looked up): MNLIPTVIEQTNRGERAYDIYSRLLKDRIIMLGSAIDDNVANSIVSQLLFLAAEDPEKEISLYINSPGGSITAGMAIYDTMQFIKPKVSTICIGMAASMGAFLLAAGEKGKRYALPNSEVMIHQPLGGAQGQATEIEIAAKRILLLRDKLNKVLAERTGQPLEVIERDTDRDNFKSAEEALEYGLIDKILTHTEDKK
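Purified B. subtilis ClpP, 10 microg/mL final in Tris/HCl pH8 with KCl, BSA, glycerol and Tween-20, cleaved an Abz/nitrotyrosine-quenched decapeptide. Fluorescence (ex 320, em 430) was read at 0 and 20 min at room temperature. Delta was normalized to 5.8 microM ADEP and DMSO/no-enzyme controls.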
Menin MLL FP FL – qHTS Assay for Inhibitors Targeting the Menin-MLL Interaction in MLL Related Leukemias: Competition With Fluorescein Labeled MLL-derived Peptide. Fluorescence polarization, fluorescein-MLL peptide displacement from menin. FP activity change, % at 61.4 µM. 290,000 tested, under 10 active; inconclusive = falling polarisation curve, or a change in total fluorescence; inactive = total fluorescence flat and polarisation flat or rising; no compound was filed as active; the % refers to the polarisation; negative = inhibition;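 note: % of control where 0% means no effect; inhibitors lower the polarisation; unlabelled MLL peptide was the positive control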
Sfp PPTase inh – qHTS Assay for Inhibitors of Bacillus subtilis Sfp phosphopantetheinyl transferase (PPTase) | 4'-phosphopantetheinyl transferase ffp (Bacillus subtilis), Q9F4F7 | Biochemical Sfp PPTase activity, qHTS | Potency, µM, for inactives: max response, negative = inhibition, usual class: inhibitors | 310,000 compounds, 3.5% hits | AID 1490, 2009; active = well fitted inhibition curve with a large enough effect; inconclusive = small, poorly fitted or top-dose-only effect, or another doubt; inactive = no such curve, though single readings can be large or run the other way;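 note: the enzyme is Sfp with the accession as filed and its product quenches rhodamine fluorescence; potency is the fitted concentration of half-maximal effect; 0% = enzyme reaction without inhibitor and -100% = no enzyme wells; top concentration of the series not given in the record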
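Sfp 15 nM + cpd, 15 min RT; start w/ rhodamine-CoA 5 uM, BHQ-2-YbbR 12.5 uM (final); 50 mM Hepes pH 7.6, 10 mM MgCl2, 0.01% NP-40, 0.01% BSA; read 525/598 nm at 0 and 30 min.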
gsp antag – qHTS for Antagonists of gsp, the Etiologic Mutation Responsible for Fibrous Dysplasia/McCune-Albright Syndrome: qHTS. AID 624288, 2012. gsp-mutant cells, cAMP HTRF, 30 min; control for the full effect not named in the record. Potency, µM (titrated, usually from 76.9 µM), for the others: at the top dose activity change, negative = inhibition, hits mostly inhibitors. 340,000 compounds, 0.4% hits; active = falling curve of any shape with a large fitted effect; inconclusive = falling curve, mostly with a smaller effect; inactive = flat or rising curve; cell line not stated here;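 note: intracellular cAMP measured with PDE inhibitor Ro 20-1724 present during compound exposure; potency is the fitted concentration of half-maximal effect; % is set by controls: 0 for no effect and ±100 for the full control effect; nearly all actives have a fitted effect of over 65% in size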
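Measurement of cellular cAMP by homogeneous time-resolved fluorescence following a 30 min compound exposure at 37C. The PDE inhibitor […] was present throughout; the assay buffer was DPBS with 0.05% BSA and 0.005% Tween 20.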
gsp ag – qHTS for Agonist of gsp, the Etiologic Mutation Responsible for Fibrous Dysplasia/McCune-Albright Syndrome: qHTS; gsp mutant cells, cAMP HTRF, 30 min; control for the full effect not named in the record; Potency, µM (doses to about 76.9 µM), without a hit: at the top dose activation (cAMP increase), most hits filed as activators; 340,000 compounds, 0.13% hits; AID 624287, 2012; active = well fitted activation curve with a large enough effect; inconclusive = small, poorly fitted or top-dose-only effect, or another doubt; inactive = no such curve, though single readings can be large or run the other way; cell line not stated here;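 note: phosphodiesterase inhibitor Ro 20-1724 added with compounds to block cAMP breakdown; potency is the fitted concentration of half-maximal effect; nearly all actives have a fitted effect of over 60% in size; about a fifth of the inactives were tested at one dose only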
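Cells in DMEM/10% FBS with G418 were pretreated with compounds in DMSO plus […] (300 uM stock) for 30 min at 37C. cAMP was measured by HTRF (cAMP-d2 plus anti-cAMP antibody-K) after 30 min at room temperature.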
* = called active by the depositor; ? = inconclusive; . = not tested or not shown; [ ] = dose if it differs, or a comment.

smiles	TRPML1 blocker	TRPV1 PAM	ClpP mod	Menin MLL FP FL	Sfp PPTase inh	gsp antag	gsp ag
CCN1C(=O)[C@H]2[C@@H](c3ccc(-c4ccc(Cl)c(Cl)c4)cc3)N[C@@](Cc3ccccc3)(C(=O)OC)[C@H]2C1=O	33	-38	?	.	.	0%	.
COc1ccc(-c2ccn(-c3cccc(F)n3)n2)cc1	5	-6	.	1.5	-16%	-5%	3%[15.4 µM]
CC(C)[C@H](N)C(=O)NC[C@H](CC(=O)NC[C@H]1CC[C@H](C(=O)O)CC1)c1ccc(Cl)cc1	-8	-6	1.2%	-3.5	11%	10%	21%
COCCNC(=O)c1ccccc1N(Cc1ccccc1)S(=O)(=O)c1ccc(C)cc1	18	2	.	0.9	-9%	-6%	10%[15.4 µM]
O=C(COC(=O)c1cc(=O)[nH]c2ccccc12)Nc1ccc(F)cc1F	-4	.	1.5%	.	.	-1%	-31%[15.4 µM]
COc1ccc(N2CCN(CCCNC(=O)C(=O)c3c(C)[nH]c4ccccc34)CC2)cc1	-5	5	.	.	2%	1%	13%
CCCCCc1ccc(OCCOCCn2c[n+](C)c3ccccc32)c(CCCCC)c1	18	-2	0.7%	-0.7	50µM*	0%	-247%[inhibitor]
COC(=O)Cc1csc(NC(=O)CSc2nncn2C)n1	11	.	.	.	.	6%	-2%
COc1ccc(C(=O)N/C(=C\c2ccc(Cl)cc2)C(=O)NCc2ccncc2)cc1	7	.	-2.5%	.	.	.	-35%[inhibitor]
O=C(c1cc(-c2ccccn2)nc2ccc(Br)cc12)N1CCc2ccccc2C1	.	-12	.	1.4	11%	.	.
COc1ccc(C(=O)NCCc2nnc3ccc(SCC(=O)Nc4ccccc4)nn23)cc1	-13	-14	-2.5%	.	-14%	-1%	?
Cc1cc2c(c(=O)n1CCN(C)C)C(c1ccccc1Br)C(C#N)=C(N)O2 (stereo not given)	-2	5	0.0%	-3.8	-1%	-7%	6%
COc1cc(/C=C2/SC(=Nc3ccc(O)cc3)NC2=O)cc(OC)c1O	-8	-10	0.5%	?	9%	-5%	-3%[15.4 µM]
Cn1c(N)c(C(=O)COC(=O)c2ccco2)c(=O)n(C)c1=O	5	-1	-1.9%	1.5	20%	12%	?
COc1ccc(-c2nc(CS(=O)(=O)CC(=O)Nc3cccc(C(C)=O)c3)c(C)o2)cc1	31	-14	-4.5%	.	0%	-9%	-31%[inhibitor]
CCOC(=O)C1CCCN(C(=O)CNS(=O)(=O)c2ccc(Br)s2)C1 (stereo not given)	-1	14	0.4%	-2.0	4%	2%	-23%
CCOC(=O)C(=O)Nc1cc(C(=O)OC)cc(C(=O)OC)c1	-10	-8	0.1%	-0.4	17%	2%	?
CCOC(=O)C1(Cc2ccccc2)CCN(Cc2ccc3c(c2)OCCO3)CC1	17	-37	.	-1.6	-4%	6%	19%[15.4 µM]
Cc1cc2nc(-c3ccco3)cc(C(F)(F)F)n2n1	3	27	-2.7%	0.9	-9%	5%	?
O=c1cc(N2CCN(c3cccc(Cl)c3)CC2)[nH]c(=O)n1C1CCCCC1	-19	1	-0.5%	1.5	18%	3%	-32%[inhibitor]
CCn1c2ccccc2c2cc(NC(=O)COC(=O)C3CCC(=O)N3)ccc21 (stereo not given)	-9	12	9.5%	-1.0	-5%	4%	1%
COC(=O)c1ccc(-c2ccco2)n1Cc1cccc(C)c1	-3	6	?	0.5	-5%	-16%	26%
CNC(=O)COC(=O)c1[nH]c(C)c(C(C)=O)c1C	-1	-12	-4.1%	3.1	9%	10%	-1%
CCc1ccc(N2C(=O)C3C4C=CC(CC4)C3C2=O)cc1 (stereo not given)	0	-15	0.3%	0.9	15%	4%	-16%
Cc1cc(C(=O)NNS(=O)(=O)c2ccc(C(C)(C)C)cc2)nn1C(C)(C)C	23	-13	1.3%	1.7	1%	-12%	12%
CC(=O)c1ccc(NC(=O)NNS(=O)(=O)c2ccc(F)cc2)cc1	0	9	0.7%	.	2%	3%	-35%[inhibitor]
O=C(CC(c1ccccc1)c1ccccc1O)NCc1ccco1 (stereo not given)	-3	-2	-1.2%	0.6	-4%	-5%	-38%[inhibitor]
CC(NC(=O)c1cc(COc2ccc3ncccc3c2)on1)c1ccc(F)cc1 (stereo not given)	-3	-10	-2.8%	-1.5	15%	28µM*	-6%
Cc1occc1-c1nnc(SCC(=O)O)n1-c1ccccc1	22	1	1.3%	-2.5	-14%	7%	-12%
COCCCNC(=O)CN1C(=O)COc2ccc(S(=O)(=O)N3CC(C)CC(C)C3)cc21 (stereo not given)	15	-8	0.4%	.	17%	-7%	21%
CS(=O)(=O)c1ccc(C(=O)N2CCN(S(=O)(=O)c3ccc(C4CCCCC4)cc3)CC2)cc1	2	.	1.0%	.	.	2%	-10%[15.4 µM]
COC(=O)C1=C(N)OC2=C(C(=O)CCC2)C1c1cccnc1 (stereo not given)	10	1	.	0.8	21%	4%	10%[15.4 µM]
CCOc1ccc(C(=O)Nc2nnc(C)s2)cc1OCC	-19	3	-8.7%	3.2	6%	2%	-11%
O=C(CN1C(=O)CCS(=O)(=O)c2ccccc21)NCc1ccccc1	20	0	-0.4%	2.3	6%	-8%	4%
Cc1ccc(S(=O)(=O)NCC(=O)N(CC(=O)NCC2CCCO2)C2CCCC2)cc1 (stereo not given)	7	3	-2.4%	3.9	13%	4%	-43%[inhibitor]
O=C(CCl)Nc1cccc(Oc2cnccn2)c1	-1	-7	2.8%	4.0	13%	-9%	2%
O=C1NC(=Nc2ccc(F)cc2)CS1	17	30	.	0.5	56µM*	-2%	-4%[15.4 µM]
CCOC(=O)c1c(C)[nH]c(C)c1S(=O)(=O)N(C)CC(=O)Nc1cccc(C)c1	45	1	-0.7%	-5.5	2%	1%	-15%
COc1ccccc1N(CC(=O)Nc1c(C)n(C)n(-c2ccccc2)c1=O)S(=O)(=O)c1ccc(C)cc1	10	5	-0.1%	5.4	17%	-6%	-41%[inhibitor]
O=P(c1cccs1)(c1cccs1)c1cccs1	9	-1	-1.7%	5.5	17%	1%	-17%
COc1ccc(S(=O)(=O)C(C#N)c2nc3ccccc3nc2N2CCCCC2)cc1 (stereo not given)	12	0	-15%	?	-4%	1%	-21%
CC1CCN(CC(=O)N2c3ccccc3CC2C)CC1 (stereo not given)	7	9	0.0%	-1.7	9%	9%	-5%[15.4 µM]
Cc1noc(C)c1NC(=O)N(C)C[C@H]1Oc2ccc(NC(=O)Nc3ccccc3)cc2C(=O)N([C@H](C)CO)C[C@@H]1C	-14	.	-2.3%	.	.	2%	.
CC1CCCC(n2c(=S)[nH]c3ccccc3c2=O)C1C (stereo not given)	-9	28	-3.4%	6.1	7%	-14%	2%
CNc1nc(SCc2ccccc2)nc(N2CCOCC2)n1	15	12	-0.7%	2.6	4%	-4%	20%
Cc1ccccc1CN1CCN(S(=O)(=O)c2cccc3nsnc23)CC1	18	21	-2.0%	.	-12%	-13%	27%
CC(NC(=O)c1ccnn1C)C1CCCO1 (stereo not given)	-5	0	-0.6%	4.6	20%	5%	?
COc1ccccc1NC(=O)C1CCN(S(C)(=O)=O)CC1	-28	4	2.3%	5.2	11%	8%	17%
COc1ccc(/C=N/NC(=O)c2cccc(NC(=O)c3ccc(Cl)cc3)c2)c(OC)c1	18	10	?	0.9	2%	7%	9%
O=c1n(Cc2ccccc2)nc2n1-c1ccccc1SC2	8	-3	-0.9%	-1.0	-8%	-2%	-25%
C/C(Cl)=C/Cn1c(SC(C)C)nc2c1c(=O)[nH]c(=O)n2C	7	-5	-1.5%	4.2	?	15%	1%
Cc1nnc(SCC(=O)NCC(=O)Nc2ccc(F)c(F)c2F)n1Cc1ccccc1	-11	-4	.	-3.8	-17%	0%	8%[15.4 µM]
CCOc1ccc(S(=O)(=O)c2cn(C)c3cc(OC)c(OC)cc3c2=O)cc1	-12	-1	-17%	.	17%	4%	16%
C/C(=N\Nc1ccccc1[N+](=O)[O-])c1ccccc1O	5	7	.	-12	13%	-3%	-37%
O=C(Cc1cccc([N+](=O)[O-])c1)Nc1cccc(C(=O)N2CCCC2)c1	7	.	-1.9%	.	.	0%	-25%
COc1ccc(C2C(C(C)=O)=C(Nc3ccccc3)CC(C)(O)C2C(C)=O)cc1OC (stereo not given)	-4	-7	1.8%	3.1	-11%	-4%	?
CCN(CC)S(=O)(=O)c1cc(NC(=O)CCNC(=O)c2ccco2)ccc1C	-5	2	.	0.5	14%	-4%	0%
COC(OC)c1ccc(C#N)c(SCc2ccc(C)cc2)n1	-11	0	0.5%	-5.4	-5%	12%	-4%[15.4 µM]
COc1ccc(OCC(=O)Nn2c(-c3ccc(OC)cc3)nc3ccccc3c2=O)cc1	-1	-30	-2.2%	-0.1	1%	15%	-65%[inhibitor]
CCOC(=O)c1c(C)[nH]c(C(=O)COC(=O)CCS(=O)(=O)c2ccc(C)cc2)c1C	24	5	.	3.2	8%	7%	1%
CCN(CC)c1ccc(NC(=O)Nc2ccccc2)cc1	9	4	-7.2%	-0.4	-5%	-12%	6%[15.4 µM]
COc1ccc(C(C2C(=O)CC(C)(C)CC2=O)C2C(=O)CC(C)(C)CC2=O)cc1	0	4	2.4%	-0.5	25µM*	1%	-28%

Compound activity from PubChem BioAssay.
